Assay outcomes (PubChem)
Vaccinia mCherry: vaccinia inhibition (mCherry reporter). Vaccinia virus mCherry reporter infection, fluorescence; about a quarter of the inactives have no number. Potency, µM (titrated, usually from 36.5 µM), for inactives: at the highest dose activity change, negative = inhibition, actives largely listed as inhibitors. hit rate 0.63% among 310,000; active = well fitted inhibition curve with a large enough effect; inconclusive = small, poorly fitted or top-dose-only effect; inactive = no such curve, though single readings can be large or run the other way; tested in A549 cells; note: nearly all actives have a fitted effect of over 35% in size; inactives centre near -10
Vaccinia Venus: vaccinia inhibition (Venus reporter). hit rate 0.46% among 330,000. Potency, µM (top dose mostly 36.5 µM), for inactives: at the highest dose activity change, negative = inhibition, usual class: inhibitors. Vaccinia virus Venus reporter expression, fluorescence; active means well fitted inhibition curve with a large enough effect; inconclusive means small, poorly fitted or top-dose-only effect; inactive means no such curve, though single readings can be large or run the other way; tested in A549 cells; note: nearly all actives have a fitted effect of over 30% in size; inactives centre near -10
Starred values were filed as active, the others as inactive; i = inactive; ? = inconclusive; · = not tested or not shown; [ ] = remark or other dose. % is set by controls: 0 for no effect and ±100 for the full control effect; potency is the fitted concentration of half-maximal effect.

SMILES | Vaccinia mCherry | Vaccinia Venus
Cc1ccc(N2CC(C(N)=O)CC2=O)cc1C (stereo not drawn) | -9% | -10%
CC(C)[N+](C)(C)CC#CC(O)(c1ccccc1)c1ccccc1 | -3% | -7%
O=C(Cn1cc(C(=O)c2ccco2)c2ccccc21)Nc1ccccc1C(F)(F)F | -26% | -30%
COCCn1ccc2c(OCC(=O)Nc3cccc(NC(C)=O)c3)cccc2c1=O | -6% | 4%
CC(C)(C)c1ccc(S(=O)(=O)NCCc2ccncc2)cc1 | ? | -29%
N#C/C(=C\c1ccc(-c2cccc([N+](=O)[O-])c2)o1)C(=O)NCCN1CCOCC1 | 3% | 1%
CN(C)N1C(N)=C(C#N)C(c2ccccc2)C2=C1CC(C)(C)CC2=O (stereo not drawn) | -7% | 3%
O=S(=O)(c1cnc(Cl)c(Br)c1)N1CCc2ccccc21 | ? | 4%
CCc1ccc(N(CC(=O)NC2CC2)S(=O)(=O)c2ccc(C)cc2)cc1 | -26% | -24%
COC(=O)COc1ccc(S(=O)(=O)Nc2ccc(C(N)=O)cc2)cc1C | -15% | -5%
Cc1ccc(NC(=O)CN2C(=O)N/C(=C/c3ccc(N4CCOCC4)cc3)C2=O)cc1 | -9% | -3%
Fc1ccc(N2CCN(C(=S)NCc3ccco3)CC2)cc1 | -19% | -8%
CN(C)S(=O)(=O)N1CCc2ccc(NC(=O)C3CCCO3)cc2C1 (stereo not drawn) | -15% | -12%
CCC(C)NC(=O)CSc1nnc(-c2cc(OC)c(OC)c(OC)c2)c(-c2cc(OC)c(OC)c(OC)c2)n1 (stereo not drawn) | -14% | -14%
c1ccc(CN2CCC(=NNc3nc4ccccc4[nH]3)CC2)cc1 | ? | ?
CCOC(=O)c1c(C)[nH]c(C(=O)Cn2nnc(-c3ccc(Cl)cc3)n2)c1C | i | -22%
CC(OC(=O)c1nn(C(C)C)c(=O)c2ccccc12)C(=O)Nc1ncc(Cl)cc1Cl (stereo not drawn) | -11% | -4%
O=C(c1cccn1-c1nnc(N2CCCCC2)s1)N1CCN(c2ccc(Cl)cc2)CC1 | -17% | -18%
COc1ccc2c(c1)C1NC(=S)NC(C)(O2)C1C(=O)Nc1ccc(Cl)cc1 (stereo not drawn) | i | -10%
COc1ccc(N(C2=NCCCS2)S(=O)(=O)c2ccc(C(C)(C)C)cc2)cc1 | -19% | -15%
CCN(CC)CCCNC(=O)c1cc(-c2ccc(OC)c(OC)c2)on1 | 9% | -3%
Cc1cc2oc(C(=O)Nc3ccc(S(=O)(=O)Nc4ncccn4)cc3)cc(=O)c2cc1C | i | -12%
O=C(Cc1ccc(Cl)cc1)NNc1c(F)c(F)cc(F)c1F | -12% | -24%
COc1cccc(NC(=O)c2nc(S(C)(=O)=O)ncc2Cl)c1 | ? | ?
CCCCCc1c(C)nc(N2CCc3ccccc32)[nH]c1=O | i | -12%
Cc1cc(C)n(-c2nc(-c3ccc(Cl)cc3)cs2)n1 | -5% | ?
COc1ccc(NCc2cc3ccc(OC)cc3n(CC(=O)Nc3ccc(C)c(C)c3)c2=O)cc1 | -4% | -1%
Oc1ccc2ccccc2c1CN1CCN(C/C=C/c2ccccc2)CC1 | ? | -7%
CC(C)N1C(=O)c2ccccc2C1C(=O)NCCc1ccccc1 (stereo not drawn) | -5% | -12%
COc1cc(CN(C)CC(=O)c2[nH]c(C)c(C(C)=O)c2C)ccc1OC(F)F | · | ?
Cc1nc(SCc2cccc(F)c2)c2oc3ccccc3c2n1 | -17% | -13%
CC(C)(C)NC(=O)CC1C[C@H](C(=O)N2CCCCC2)[C@@]2(CCc3ccccc3)c3[nH]c4ccccc4c3CCN2C1=O (stereo partly drawn) | -7% | -17%
CC(=O)Nc1ccc(S(=O)(=O)NCCOc2ccc(Cl)cc2C)cc1 | i | -17%
O=C(Cc1ccccc1)NNS(=O)(=O)c1ccccc1[N+](=O)[O-] | i | -8%
O=C(COc1ccc(Cl)cc1)N1CCN(C2CCCC2)CC1 | -2% | -5%
Cc1ccc(NS(=O)(=O)c2ccc3c(c2)C(=O)c2ccccc2C3=O)c(C)c1 | -15% | -8%
FC(F)(F)c1ccc(C2=Nc3ccccc3NC(c3cccs3)=N2)cc1 | -17% | -18%
CC(=O)N1Cc2cc(C(=O)NCC(F)(F)F)nc(-c3cccc(-c4cc5ccccc5o4)c3)c2[C@@H]1CCO | -24% | -9%
COc1ccc2cc(CCN3C(=O)c4ccccc4C3=O)c(=O)[nH]c2c1 | -1% | -14%
CC(C)COC(=O)c1nnsc1NC(=O)Nc1ccccc1 | -3% | 1%
COc1ccc2c(c1C)CCC(C)(C#N)C2=O (stereo not drawn) | -12% | -15%
CC(C)Oc1ccc(C(=O)Nc2ccc(Cl)c(S(=O)(=O)Nc3ccc(Cl)cc3)c2)cc1 | ? | ?
Cc1ccccc1NC(=O)c1ccc2nc(Cc3ccccc3)oc2c1 | -11% | -11%
CCOC(=O)c1ccc[n+]([O-])c1 | i | 0%
CCc1nnc(SCc2ccc(F)cc2Cl)c2cc3sccc3n12 | -23% | -18%
CC(=O)NC1=NN(C(C)=O)C(C)(c2cccnc2)S1 (stereo not drawn) | -7% | -20%
COC(=O)C1=CN(Cc2ccc(OC)cc2)C=C(C(=O)OC)C1c1cc(OC)c(OC)c(OC)c1 | 34%[activator] | -8%
CNc1nn(-c2cccc(Cl)c2)nc1N | -7% | 27%
CCCS(=O)(=O)NC(=O)C1(C)CCN1C(=O)Cc1ccc(-c2ccccc2)cc1 (stereo not drawn) | -12% | -7%
Clc1cccc(Cl)c1NC1=NCCC1 | -22% | -28%

The listing continues.
SMILES | Vaccinia mCherry | Vaccinia Venus
O=C(Nc1nnc(C2=COCCO2)o1)c1ccc([N+](=O)[O-])s1 | -12% | -10%
Cc1ccc(C(=O)Nc2cc(C(F)(F)F)ccc2N2CCCCC2)cc1[N+](=O)[O-] | · | -12%
COc1ccc(CCC(=O)Nc2ccc(S(=O)(=O)N3CCOCC3)cc2)cc1 | -24% | -4%
O=C(COc1ccc(Cl)cc1)Nc1sc2c(c1C(=O)Nc1cccc(Cl)c1)CCCC2 | -17%[7.34 µM] | -12%[7.34 µM]
COc1cc(CO)c(OC)c([N+](=O)[O-])c1 | i | -2%
CCOC(=O)Cn1c(=O)oc2cc(S(=O)(=O)N3CCC(N4CCCCC4)CC3)ccc21 | -32% | 1%
COc1ccc(-c2sc(C(=O)c3ccc(Cl)cc3Cl)cc2CC(=O)O)cc1 | ? | -20%
Cc1cccc(NC(=O)c2cnc3sccn3c2=O)n1 | -27% | -17%
O=C1c2ccccc2C(=O)N1CNc1ccccc1 | 3% | 1%
CCN(CC)CCN(C(=O)CCOc1ccccc1)c1nc2c(F)cc(F)cc2s1 | -16% | -19%
Cc1ccc(NC2=NCC(=O)N2Cc2ccc3c(c2)OCO3)c(C)c1 | i | -13%
CC(C(=O)O)c1ccc(CC2CCCC2=O)cc1 (stereo not drawn) | -14% | -6%
CSc1cccc(NC(=O)Cn2nnc(C(=O)NCCc3ccccc3)c2N)c1 | -9% | -1%
Cc1cc(/C=C2/NC(=O)NC2=O)c(C)n1-c1ccccn1 | -6% | -12%
O=C(OCc1cc(=O)n2nc(-c3cccs3)sc2n1)c1ccccc1Cl | -9% | 7%
O=C(C[n+]1cc(-c2ccc(F)cc2)n2c1CCC2)Nc1nc(-c2ccccc2)cs1 | i | -9%
COc1ccc(NC(=O)N(C)[C@H]2C[C@H]3c4[nH]c5ccc(-c6cccc(C)c6)cc5c4CCN3C[C@H]2[C@H](C)O)cc1 | -30% | ?
CN1CCN(c2ccc(NC(=O)Cc3ccccc3)cc2)CC1 | i | -16%
O=C(CSc1nc2ccsc2c(=O)n1Cc1ccccc1Cl)NCc1ccc(F)cc1 | -10% | -7%
Cc1ccc(S(=O)(=O)N2[C@@H](c3ccc(Cl)cc3)C(C(=O)OC(C)(C)C)=CC[C@H]2c2ccc(Cl)c(Cl)c2)cc1 | -5% | -4%
COc1ccc2c(c1)c(C(=O)N/N=C/c1ccccc1Cl)c(C)n2C | i | -2%
CCCCCCCN=C(C)c1ccccc1O | -11% | -9%
Cc1cc(-c2ccc(S(=O)(=O)Nc3cccc(C)c3C)s2)on1 | -28%[7.34 µM] | -26%[7.34 µM]
O=C(Nc1ccccc1F)NC1CCCc2ccccc21 (stereo not drawn) | i | -4%
CC(=O)c1ccc2c(c1)Nc1ccccc1S2 | -23% | -11%
COc1cccc(N2CCN(c3ncnc4c3c(-c3ccccc3)cn4-c3cccc(C(F)(F)F)c3)CC2)c1 | -9% | -6%
CCCS(=O)(=O)NCCc1csc2nc(-c3ccc(C)cc3)nn12 | -6% | -4%
Nc1c(C(=O)Nc2cccc(F)c2)c2ccccn2c1C(=O)c1ccccc1 | -2% | 1%
COc1ccc(OC)c2c(=O)cc(C(=O)O)[nH]c12 | -8% | -6%
CCOC(=O)c1c(C)oc2ccc(OC(=O)c3cccs3)cc12 | -17% | -8%
CC(C)(C)NC(=O)CN1C(=O)NC(c2ccccc2)(c2ccccc2)C1=O | -9% | 3%
COc1cc(S(=O)(=O)N2CCN(C(=O)c3cccs3)CC2)ccc1NC(C)=O | -14% | -17%
CCOC(=O)Cc1csc(SCC(=O)NC2CCCC2)n1 | -7% | -1%
COc1cccc(CNC(=O)CN(C)S(=O)(=O)c2cnc[nH]2)c1 | · | -7%
O=C(Nc1ncc2c(n1)CC(c1ccco1)CC2=O)c1ccco1 (stereo not drawn) | i | -8%
COc1ccc(CN(C(=O)c2cc3ccccc3oc2=O)C2CCCC2)cc1 | -18% | -13%
C[C@H](CO)N1C[C@H](C)[C@@H](CN(C)C(=O)Nc2ccc(C(F)(F)F)cc2)Oc2ccc(NC(=O)Cn3cnnn3)cc2C1=O | i | -7%
COc1ccc2c(=O)c3c(=O)n(-c4ccccc4)c(-c4ccco4)nc3oc2c1 | i | -14%
CC1C(C)N1CC(O)Cn1ccnc1[N+](=O)[O-] (stereo not drawn) | -7% | -15%
CC(=O)Nc1ccc(S(=O)(=O)NCC2CCC(C(=O)NCCc3ccc(C)cc3)CC2)cc1 (stereo not drawn) | 4% | -6%

Reformatted tab-delimited: five of the compounds above
Structure	Vaccinia mCherry	Vaccinia Venus
COc1ccc(CN(C(=O)c2cc3ccccc3oc2=O)C2CCCC2)cc1	-18%	-13%
CC1C(C)N1CC(O)Cn1ccnc1[N+](=O)[O-] (stereo not drawn)	-7%	-15%
COc1ccc2c(=O)c3c(=O)n(-c4ccccc4)c(-c4ccco4)nc3oc2c1	i	-14%
O=C(Nc1ncc2c(n1)CC(c1ccco1)CC2=O)c1ccco1 (stereo not drawn)	i	-8%
COc1cccc(CNC(=O)CN(C)S(=O)(=O)c2cnc[nH]2)c1	·	-7%

Later entries.
SMILES | Vaccinia mCherry | Vaccinia Venus
CS(=O)(=O)Nc1ccc(C(=O)Nc2ccc(S(=O)(=O)N3CCCCC3)cc2)cc1 | -19% | -19%
O=C(NC1=NCCS1)c1cc(-c2ccc(F)cc2)nc2ccccc12 | -7% | -21%
C[C@H](CO)N1C[C@H](C)[C@H](CN(C)Cc2ccncc2)Oc2cc(-c3ccccc3F)ccc2S1(=O)=O | -8% | -18%
COC(=O)CSc1nnc(COc2cccc3ccccc23)o1 | i | -6%
CC(C)(C)C(=O)OCCNc1nc(-c2cccs2)nc2ccccc12 | -24% | -22%
Cc1cn([C@H]2C[C@H](O)[C@@H](CNCc3cnc(N4CCOCC4)s3)O2)c(=O)[nH]c1=O | -15% | -10%
COc1cc2c(cc1OC)-c1cc(NC3CCCCC3)nc(=O)n1CC2 | · | -7%
O=C(/C=C/c1ccccc1)NCCC1=CCCCC1 | i | -12%
CCOC(=O)C1CCN(/C=C2/C(=O)NC(=O)N(Cc3ccco3)C2=O)CC1 | ? | -14%
CCC1CN(C(=O)Nc2ccccc2F)c2cc(C)ccc2O1 (stereo not drawn) | 1% | -5%
c1ccc(-c2ccncc2)nc1 | i | 0%
COCCNC(=O)C1(C)CCN(C(=O)c2ccc(F)c(C)c2)C1 (stereo not drawn) | 14% | -3%
Cc1nc2ccccc2c(=O)n1-c1ccc(NS(=O)(=O)c2ccc(F)cc2F)cc1 | i | -20%
COc1ccc2c(c1OC)C(=O)N(C(C)C(=O)O)C2=O (stereo not drawn) | i | -10%
CCn1ncc(Cl)c1C(=O)Nc1ccncc1 | -6% | -7%
CCN(CC)C(=O)c1[nH]cnc1C(=O)NCc1ccccc1 | i | -9%
O=C(NCCc1ccncc1)c1cnn(-c2ncc3c(n2)-c2ccccc2CCC3)c1C1CC1 | -4% | -11%
CCCNC(=O)Cn1c(=O)cc(C)c2c(C)nn(-c3cccc(F)c3)c21 | 0% | -7%
COc1cccc(-c2nc3cc(C)ccc3o2)c1 | -16% | 3%
CC(C)c1ccc(O)c(C(=O)c2cnn(-c3ccccc3)c2)c1 | -2% | -15%
Cc1ccccc1-n1c(-c2ccoc2)nc2ccccc2c1=O | -10% | -7%
CC(=O)Nc1ccc(S(=O)(=O)NCCCc2ccccc2)cc1 | -9% | -13%

Looked up by structure from the list above, four records:
SMILES | Vaccinia mCherry | Vaccinia Venus
CCN(CC)C(=O)c1[nH]cnc1C(=O)NCc1ccccc1 | i | -9%
c1ccc(-c2ccncc2)nc1 | i | 0%
COc1cccc(-c2nc3cc(C)ccc3o2)c1 | -16% | 3%
CCCNC(=O)Cn1c(=O)cc(C)c2c(C)nn(-c3cccc(F)c3)c21 | 0% | -7%

As entered above.
CC(=O)Nc1ccc(S(=O)(=O)NCCCc2ccccc2)cc1 | Vaccinia Venus = -13%
O=C(NCCc1ccncc1)c1cnn(-c2ncc3c(n2)-c2ccccc2CCC3)c1C1CC1 | Vaccinia Venus = -11%
